From PubChem
YopH inh: YopH tyrosine phosphatase inhibitors, primary screen, biochemical, fluorescence Ex485/Em525 | YopH tyrosine phosphatase [Yersinia enterocolitica] | inhibition, %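 (about 10 µM by stock and volumes)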 | 0.16% of 140,000 active;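 active = inhibition of 50% or more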;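 also: controls were vehicle for no effect and minimum signal wells for full effect; inactives centre near -20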
Arbovirus anti: antivirals against arbovirus infection, primary screen, cell-based, full library, 10K replicate subset | arbovirus infection cell-based antiviral screen | inhibition, % at 10 µM | 0.37% of 200,000 active | AID 1251, 2008;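 active = inhibition from about 30%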;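 also: bluetongue infection of BSR cells; cell survival read as ATP light after 72 h; 0% = infected wells without compound and 100% = uninfected wells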
Mtb bLac sens: beta-lactam sensitization of Mtb H37Rv, H37Rv. 0.27% of 330,000 active. M. tuberculosis H37Rv growth with meropenem, percent inhibition; hits of this screen are not shown here. inhibition, % at 25 µM;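 active = about 74% or more and at least 40 points above the plate without the antibiotic, then above 30% in a dose series; inconclusive = first-round hits that could not be retested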;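 also: growth measured after seven days incubation then overnight dye step; 0% = bacteria only wells and 100% = bacteria with antibiotic; twin plates without the antibiotic show which effects depend on it; some results filed as inactive read as strong as hits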
Mtb growth: M. tuberculosis H37Rv growth inhibitors, H37Rv strain (AID 1626). M. tuberculosis H37Rv growth inhibition; higher % means a stronger effect. one-dose inhibition, % at 10 µM; IC50 in µM for titrated hits. 0.95% of 220,000 active;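 active = confirmed in a dose series; inconclusive = inhibition above 80% but not taken into the dose series; inactive = below 80% or under 30% at every dose of the series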;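 also: bacteria incubated seven days before Alamar blue readout; 0% = bacteria only wells and 100% = bacteria with antibiotic wells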
RecA splice inh: Mtb RecA intein splicing inhibitors, primary screen, biochemical, fluorescence, HTS. inhibition, %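 (about 9 µM by stock and volumes)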. AID 2221, 2009. cell-free RecA intein splicing. 0.75% of 290,000 active. Protein RecA (Mycobacterium tuberculosis (strain ATCC 25618 / H37Rv)), P9WHJ3; in the data active = inhibition above about 30%; inconclusive = no clear call, values can overlap the other calls;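 also: 0% = vehicle wells and 100% = reference inhibitor control wells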
Target sequence (P9WHJ3 whole entry, looked up, canonical isoform): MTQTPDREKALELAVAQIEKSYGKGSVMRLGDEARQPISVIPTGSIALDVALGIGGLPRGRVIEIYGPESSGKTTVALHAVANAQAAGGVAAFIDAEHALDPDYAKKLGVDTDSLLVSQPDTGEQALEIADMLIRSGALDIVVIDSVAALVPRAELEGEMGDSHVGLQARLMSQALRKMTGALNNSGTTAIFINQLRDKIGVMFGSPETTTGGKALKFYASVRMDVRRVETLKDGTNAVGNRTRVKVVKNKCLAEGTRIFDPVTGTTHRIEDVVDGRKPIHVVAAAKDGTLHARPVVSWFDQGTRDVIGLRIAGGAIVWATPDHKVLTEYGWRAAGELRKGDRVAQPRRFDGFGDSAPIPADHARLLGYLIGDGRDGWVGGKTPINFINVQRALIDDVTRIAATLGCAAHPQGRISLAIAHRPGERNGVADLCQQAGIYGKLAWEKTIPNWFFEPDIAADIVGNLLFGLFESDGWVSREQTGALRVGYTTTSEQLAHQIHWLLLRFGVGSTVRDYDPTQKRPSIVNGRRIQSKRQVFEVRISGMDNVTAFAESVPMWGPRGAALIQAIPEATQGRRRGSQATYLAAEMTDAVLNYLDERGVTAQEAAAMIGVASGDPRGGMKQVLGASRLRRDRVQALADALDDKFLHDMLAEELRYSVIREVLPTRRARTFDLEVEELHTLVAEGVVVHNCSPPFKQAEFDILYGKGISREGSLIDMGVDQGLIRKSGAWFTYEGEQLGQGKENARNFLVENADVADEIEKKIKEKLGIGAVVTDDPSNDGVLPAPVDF
Arbovirus anti repeat: recorded beside Arbovirus anti, whose call it bears; inhibition, %; measured here: 10K subset replicate screen; many hits read low in the repeat;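 first of two repeat runs on a subset; 0% = infected and 100% = uninfected wells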
* marks the source's active call; other numbers are inactive results; i = inactive; ? = inconclusive; nt = no result given. A portion of the library, so the mix of outcomes need not match the whole.

SMILES	YopH inh	Arbovirus anti	Mtb bLac sens	Mtb growth	RecA splice inh	others
Cc1cccc(C(=O)NCC2CCN(C(=O)c3cccc(C)c3)CC2)c1	nt	nt	-10	nt	-0.2
O=C(N/N=C/c1cc(Br)cs1)c1c[nH]c2ccccc12	nt	nt	8	5%	7.5
O=S1(=O)CCOCCCN1Cc1cccc(F)c1	nt	nt	1	nt	-1.1
CCOC(=O)C(C)Sc1ccc2nnc(CCNS(=O)(=O)c3ccccc3)n2n1 (stereo not drawn)	nt	-1	1	-4%	-1.9
Cc1cccc(S(=O)(=O)NNC(=O)c2sc(C)nc2C)c1	-27	9	-8	0%	-1.6
CC(=O)Nc1cc(C(=O)N2CCC3(CC2)OCCO3)ccc1S(=O)(=O)c1ccc(C)cc1	-26	2	-8	-1%	-1.0
Cc1ccc(/C=N/N2CCN(C3c4ccccc4-c4ccccc43)CC2)s1	-24	-14	-1	-1%	3.3
COc1ccccc1N1CCN(C(=O)c2cc(=O)c3cc(C)cc(C)c3o2)CC1	nt	nt	45	nt	0.6
COc1cccc(N2CCN(Cc3cccnc3)CC2)c1	-35	1	-1	-4%	-1.0
CN(C)S(=O)(=O)c1ccc(Cl)c(NC(=O)c2ccncc2)c1	-23	-1	-1	-2%	-1.1
COCCNC(=O)c1ccc(Cl)c(Cl)c1	-10	5	-5	-13%	0.5
O=[N+]([O-])c1cccc(-c2ccc(/C=N/Nc3nc(N4CCCCC4)nc(N4CCCCC4)n3)o2)c1	nt	7	84	?	-1.3
O=C(Cc1ccc(Cl)cc1)NCC(=O)N1CCCCC1	nt	1	-9	-2%	-1.0
CC(C)Oc1ccc(C(=O)N(Cc2ccco2)C2CCS(=O)(=O)C2)cc1 (stereo not drawn)	-14	7	5	-5%	2.4
CC1(C)OC1COc1c2occc2cc2ccc(=O)oc12 (stereo not drawn)	-22	-1	-2	3%	-0.1

The closing 6 compounds of the section before come first, to join the parts.
SMILES	YopH inh	Arbovirus anti	Mtb bLac sens	Mtb growth	RecA splice inh	others
CN(C)S(=O)(=O)c1ccc(Cl)c(NC(=O)c2ccncc2)c1	-23	-1	-1	-2%	-1.1
COCCNC(=O)c1ccc(Cl)c(Cl)c1	-10	5	-5	-13%	0.5
O=[N+]([O-])c1cccc(-c2ccc(/C=N/Nc3nc(N4CCCCC4)nc(N4CCCCC4)n3)o2)c1	nt	7	84	?	-1.3
O=C(Cc1ccc(Cl)cc1)NCC(=O)N1CCCCC1	nt	1	-9	-2%	-1.0
CC(C)Oc1ccc(C(=O)N(Cc2ccco2)C2CCS(=O)(=O)C2)cc1 (stereo not drawn)	-14	7	5	-5%	2.4
CC1(C)OC1COc1c2occc2cc2ccc(=O)oc12 (stereo not drawn)	-22	-1	-2	3%	-0.1
COc1ccc(-c2coc3cc(OC)cc(OC)c3c2=O)cc1	nt	-8	-8	-3%	-2.0
O=C1[C@H]2[C@@H](/C=C/c3ccccc3)N3C(=O)CN(CC4CC4)C(=O)[C@@]3(Cc3ccccc3)[C@H]2C(=O)N1c1ccccc1	nt	nt	-2	nt	1.0
CC(C)C(CO)NC(=O)CC(=O)NC(CO)C(C)C (stereo not drawn)	-5	0	-4	-2%	-0.5	Arbovirus anti repeat=4
Cc1cc(C)c(NS(=O)(=O)c2ccc(NC(=O)CCC(=O)O)cc2)c(C)c1	nt	3	3	-4%	-2.6
COCC(=O)OCC(=O)Nc1cc(C)c(C)cc1[N+](=O)[O-]	-14	1	2	-4%	-2.0
Cc1csc(=Nc2ccccc2)n1CCCN1CCCC1=O	nt	-2	-8	4%	0.3
N#C/C(=N\Nc1ccc(S(=O)(=O)N2CCOCC2)cc1)C(N)=S	nt	nt	-8	-12%	4.9
Cc1cc(NC(=O)CSC2=NS(=O)(=O)c3cc(F)ccc3N2)no1	nt	nt	-8	nt	-2.1
Cc1ccc(-c2nnn(CC(=O)N(CC(=O)NCC3CCCO3)c3ccccc3)n2)o1 (stereo not drawn)	-29	1	2	-8%	1.0
CN(C(=O)COC(=O)c1cccc(S(=O)(=O)N2CCCCCC2)c1)C1CCS(=O)(=O)C1 (stereo not drawn)	nt	nt	-11	nt	-1.3
COc1ccc(-c2cc(C(F)(F)F)c3c(n2)sc2c(O)cc(=O)[nH]c23)c(OC)c1	-13	18	62	2%	-20
O=c1oc2ccccc2c(NCc2ccccc2F)c1[N+](=O)[O-]	-16	-3	10	5%	-0.5
CC1C=CCC2C(=O)N(c3ccc(OC(=O)c4ccco4)cc3)C(=O)C12 (stereo not drawn)	nt	10	-1	2%	7.2
COc1ccccc1OCCn1cc(C=O)c2ccccc21	nt	nt	3	nt	-8.8
Cn1nc([N+](=O)[O-])c(C(C#N)c2ccccn2)c(Cl)c1=O (stereo not drawn)	nt	-26	91	4%	46*
O=C(O)C1CCc2sc3[nH]c(=S)n(-c4ccccc4)c(=O)c3c21 (stereo not drawn)	nt	nt	3	nt	-1.6
Cc1ccnc(NC(=O)c2ccc(S(=O)(=O)N3CCC(C)CC3)cc2)c1	nt	nt	-4	nt	-3.0
COc1ccc(NC(=O)Nc2cccc(C(F)(F)F)c2)cn1	nt	3	-12	7%	-1.4
CCCn1ncc(CN2CCC(n3nccc3NC(=O)c3ccccc3Cl)CC2)c1C	nt	nt	-7	nt	-3.3
Cc1cc(NC(=O)CS(=O)(=O)c2ccc(F)cc2)no1	nt	nt	4	nt	1.2
Oc1c(C2=NCCNC(C(F)(F)F)=C2)ccc2ccccc12	nt	1	nt	3%	5.0
CCN(CC)c1ccc2c(Cl)cc(=O)oc2c1	-34	-4	14	-8%	-280
COc1ccc(CCNC(=O)CNCC2CCCO2)cc1OC (stereo not drawn)	-28	9	-2	7%	-1.4
O=C(N/N=C/c1cccs1)c1cc(-c2cccc3ccccc23)n[nH]1	-22	-25	88	9%	16
CCOc1cc(/C=N/NC(=O)c2cccnc2)ccc1OCC(N)=O	nt	1	-8	-4%	3.0
Nc1ccc(-c2cn3cccnc3n2)cc1	nt	-1	nt	1%	-2.2
Cc1cc(C)c2[nH]c(=O)c(C(c3nnnn3CC3CCCO3)N3CCCC(C)C3)cc2c1 (stereo not drawn)	-17	6	5	2%	-5.5
CC(=O)c1cccc(NC(=O)N2CCC(c3ccc(C)cc3)C2)c1 (stereo not drawn)	nt	-4	-6	7%	-0.2
Cc1ccc(-c2nnc(SCC#CCOC(=O)c3ccco3)o2)cc1	-12	0	100	<0.39µM*	0.3
O=[N+]([O-])c1ccccc1S(=O)(=O)n1cnc2ccccc21	nt	7	4	0%	-5.3
CC(=O)N(c1ccc(N(C(C)=O)S(=O)(=O)c2cccs2)cc1)S(=O)(=O)c1cccs1	-32	-3	6	-1%	-3.5
Cc1ccc(Cl)cc1NC(=O)Nc1c(C)n(C)n(-c2ccccc2)c1=O	nt	nt	0	nt	1.0
CC1Cc2ccccc2N1C(=O)Cn1cnc2ccccc21 (stereo not drawn)	nt	0	-6	3%	nt
Cc1ccc(-n2c(COc3ccccc3)n[nH]c2=S)cc1	nt	-1	6	-4%	3.2
CC(C)(C)c1nnc(SCC(=O)c2ccccc2)n(N)c1=O	-27	-9	1	1%	-4.0
CCCCC1=NN2CCS(=O)(=O)N=C2S1	nt	1	-10	4%	-0.1
CC(C)(C)n1nnnc1C(c1cccs1)N(Cc1ccc(Cl)cc1)CC1CCCO1 (stereo not drawn)	-11	-24	-3	14%	24
O=C1NC(=O)/C(=C\c2ccc(OCc3cccc([N+](=O)[O-])c3)cc2)N1	nt	-8	-5	-4%	-0.3
COc1ccc(Cl)cc1S(=O)(=O)Nc1cccc(C(=O)O)c1	-30	2	0	-5%	-5.6
COc1ccc(N2CCN(S(=O)(=O)CCNC(=O)c3ccc(Br)o3)CC2)cc1	nt	nt	2	nt	0.4
CCCCNC(=O)N(O)C1N(/N=C/c2ccc(N(C)C)cc2)C(=S)SC1(C)C (stereo not drawn)	nt	nt	9	nt	-27
CCOC(=O)c1nn2c(C(F)(F)F)cc(-c3ccc(OC)cc3)nc2c1Br	nt	nt	3	nt	-12
O=C(NNC(=S)Nc1ccccc1)NNC(=S)Nc1ccccc1	nt	-5	-7	0%	-0.9
O=C1CC(N2CCN(c3ccccc3O)CC2)C(=O)N1Cc1ccccc1 (stereo not drawn)	nt	13	9	2%	-2.2
N#CC1=C(SCc2ccccc2)NC2=C(C(=O)CCC2)C1c1ccc2c(c1)OCO2 (stereo not drawn)	-46	0	-4	-2%	2.6
CCC(C)(CC(=O)N(C)CCC#N)c1ccccc1 (stereo not drawn)	9	1	1	-9%	0.5
Cc1ccc2nc(SCC(=O)Nc3ccc(F)cc3F)[nH]c2c1	nt	13	7	8%	-1.0
Cc1ccccc1C(=O)N1CCC(C(=O)Nc2cc(C(F)(F)F)ccc2N2CCCC2)CC1	nt	nt	7	nt	3.9
COCCNC(=O)/C(C#N)=C/c1ccc(OC(=O)c2cccs2)c(OC)c1	nt	13	nt	67%	26
N=c1c(C(=O)NCC2CCCO2)cc2c(=O)n3ccccc3nc2n1Cc1ccc(Cl)cc1 (stereo not drawn)	nt	nt	4	nt	i
Nc1cc(=O)[nH]c(SCC(=O)Nc2nnc(-c3ccccc3)s2)n1	nt	-3	3	0%	-1.4
Cc1ncoc1C(=O)Nc1ccccc1C(N)=O	-5	3	-2	1%	1.8
Cc1c(OCC(=O)Nc2cccnc2)ccc2c3c(c(=O)oc12)CCC3	nt	nt	-2	nt	94*
O=C(NCCOC(=O)c1ccccc1)c1ccc([N+](=O)[O-])cc1	nt	nt	-3	nt	0.4
Cc1ccc(/C=C2\C(=O)NC(=S)N(c3ccc(F)cc3)C2=O)s1	nt	-23	8	4%	-2.3
CCCCN(Cc1cc2ccccc2[nH]c1=O)C(=O)c1ccccn1	-17	5	0	0%	-3.3
CC(=N)C1=C(O)CC(c2ccccc2)CC1=O (stereo not drawn)	nt	nt	1	nt	-0.5
CCCc1cc(=O)[nH]c(SCC(=O)N2CCCC2=O)n1	nt	nt	53	nt	-2.8
COc1ccc(CNC(=O)CCS(=O)(=O)c2ccc3c(c2)CCN3C(C)=O)cc1	nt	nt	-3	nt	-1.2
CC1(C)COC(Nc2ccc(Cl)cc2)=N1	6	4	-2	-13%	-0.6

(more compounds)
SMILES	YopH inh	Arbovirus anti	Mtb bLac sens	Mtb growth	RecA splice inh	others
CCCc1nnc(NC(=O)CSc2ncn[nH]2)s1	-38	7	-6	-1%	-2.2
CCN(CC(=O)Nc1ccccc1OC)C(=O)COc1ccc2ccccc2c1	-10	4	?	7%	-1.1
OCC(O)C1OC(Nc2ccc(Br)cc2)C(O)C1O (stereo not drawn)	nt	-18	0	-6%	2.6
Cc1ccc(S(=O)(=O)N2CCOC2CNC(=O)C(=O)NCCCc2ccccc2)cc1 (stereo not drawn)	nt	nt	-7	nt	-1.9
CC(=O)NC(CC(=O)Nc1nc(-c2ccc(N(C)S(C)(=O)=O)cc2)cs1)c1ccccc1 (stereo not drawn)	nt	nt	-3	nt	3.6
CC(C)(C)NC(=O)C1CC(=O)OC12CCCCC2 (stereo not drawn)	-21	0	-10	-5%	-2.0
Cc1cc(C)cc(OCC(=O)OCC(=O)c2c(N)n(C)c(=O)n(C)c2=O)c1	-30	-1	21	2%	1.0
Cc1cc(C)c(S(C)(=O)=O)c(N(C)NC(=O)c2c(F)cccc2F)n1	nt	-1	-10	1%	-1.4
O=C(CNC(=O)c1ccco1)Nc1ccc(Br)cc1	nt	nt	-4	nt	-0.8
O=C(COC(=O)CNC(=O)c1ccc(Cl)c([N+](=O)[O-])c1)NNC(=O)c1cccs1	nt	nt	-17	nt	-3.8
CC1(C)CC2CC(C)(CN2C(=O)c2ccc([N+](=O)[O-])cc2[N+](=O)[O-])C1 (stereo not drawn)	nt	-3	-3	-5%	-8.9
COc1cc(/C=N/OCC(=O)NC2CCCCC2C)ccc1OCc1ccc(Cl)cc1 (stereo not drawn)	-35	4	4	-1%	-3.1
CCC1(C)Cc2c(sc3[nH]c(=O)[nH]c(=O)c23)CS1 (stereo not drawn)	-7	10	-5	0%	-40
CCOC(=O)C1CCN(c2c(N3CCCC(C(=O)OCC)C3)c(=O)c2=O)CC1 (stereo not drawn)	-24	3	-3	-6%	-3.7
Nc1c(N(CCO)C(=O)C2CCCCC2)c(=O)[nH]c(=O)n1Cc1ccccc1	nt	nt	2	4%	-8.2
Cc1cc(C)cc(-n2c(O)c(C=NC3CCS(=O)(=O)C3)c3ccccc3c2=O)c1 (stereo not drawn)	0	-3	-3	0%	1.5
